Bfl-1 A1 inh = inhibitors of the anti-apoptotic protein A1, read as caspase activation. caspase activation, % (no concentration beside the values). MEF A1-2A-BIM cells, Caspase-Glo 3/7 luminescence, 3 h; percent of clofoctol response, vehicle zero. 330,000 compounds, 0.066% hits;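 active means over half of replicate activation scores above 10%, or exactly half above 10 with the replicate mean above 10; inconclusive means replicate mean below 10 yet half the replicates above 10; inactive means over half of replicates below 10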;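 further: wells of about 30 µL received 50 nL stock; many hits fall short of the cut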
E coli growth = blocks Escherichia coli growth; 330,000 compounds, 0.21% hits; AID 1053175; OD600 absorbance (concentration not given with the values); OD600, 23 h; active compounds read low;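 active means OD600 absorbance below the run mean of sample wells minus 3.6 SD, in any replicate, cut at about 0.56 in these data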;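 further: stock transfer was 300 nL into about 60 µL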
HNF4A DNA FP = change in binding of human HNF4 alpha to DNA; HNF4a-FITC DNA binding, fluorescence polarization, 1 h; 360,000 compounds, 0.3% hits; activity change, % at 10 µM; in the data active means activity change above about 30%, passing the limit was not always enough;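 further: controls were the assay level and a saturating level of protein; the project sought stronger binding though the title names inhibitors; some compounds called inactive have numbers as strong as hits; positive values seem to mean higher polarization but the record does not say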
UCH37 inh = blocks the human deubiquitinase UCH37 | Q9Y5K5 | purified proteasome/UCH37, Ub-AMC cleavage fluorescence | inhibition, % (test concentration not listed) | 330,000 compounds, 0.33% hits | AID 588478;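 active means mean of two replicates above 20%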;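 further: 0% = compound-free wells with enzyme and 100% = wells lacking proteasome; stock transfer was 100 nL into about 20 µL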
Target sequence (Q9Y5K5 whole entry, looked up): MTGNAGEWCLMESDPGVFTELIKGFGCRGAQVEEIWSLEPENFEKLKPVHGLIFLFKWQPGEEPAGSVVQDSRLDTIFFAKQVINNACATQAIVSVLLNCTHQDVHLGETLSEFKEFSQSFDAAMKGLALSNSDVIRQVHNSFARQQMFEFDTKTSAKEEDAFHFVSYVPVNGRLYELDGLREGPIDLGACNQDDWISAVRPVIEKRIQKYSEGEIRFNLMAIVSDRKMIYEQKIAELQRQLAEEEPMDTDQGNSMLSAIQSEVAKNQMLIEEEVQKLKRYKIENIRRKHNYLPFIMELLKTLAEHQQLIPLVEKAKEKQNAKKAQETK
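Material: human UCH37 enzyme supplied as purified proteasome complex. Measure: % inhibition of Ub-AMC cleavage fluorescence. Medium: pH 7.4 Tris-HCl (50 mM) with ovalbumin, ATP-MgCl2, DTT. Times: 30 min preincubation with enzyme, 25 min cleavage at room temperature. Detection: AMC fluorescence intensity at 355/460 nm.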
Vif A3G = HIV-1 Vif–A3G interaction blockers – biochemical, TR-FRET, GST-Vif 1-94, biotin-A3G peptide, dose response retest, primary screen (AID 1117319). 260,000 compounds, 0.57% hits. inhibition, %, or IC50 in µM where a hit was titrated. TR-FRET GST-Vif / biotin-A3G peptide binding; higher % means a stronger effect; test concentration not given here; strong numbers were not always called active;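 active means above the screen mean plus three standard deviations and confirmed in dose response; inconclusive means results disagree or hit not tested in dose response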;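 further: Vif residues 1-94 fused to GST binding biotinylated APOBEC3G peptide 110-148; 0% = full assay without inhibitor and 100% = GST in place of GST-Vif; retest series ran down from 100 µM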
B2AR ag = human beta-2 adrenergic receptor agonism by FAP; 340,000 compounds, 0.43% hits; Am2.2-beta2AR cells, FAP receptor internalization, flow cytometry; reference of the scale not given here; P07550; AID 504454; response, % (concentration not given with the values);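 active means response above a set limit, near 3 SD of response in nonfluorescent compounds, cut at about 42% in these data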;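 further: stock transfer was 100 nL into about 11 µL; a reference agonist was the positive control; negative values mostly stem from fluorescent compounds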
Target sequence (P07550 whole entry, looked up): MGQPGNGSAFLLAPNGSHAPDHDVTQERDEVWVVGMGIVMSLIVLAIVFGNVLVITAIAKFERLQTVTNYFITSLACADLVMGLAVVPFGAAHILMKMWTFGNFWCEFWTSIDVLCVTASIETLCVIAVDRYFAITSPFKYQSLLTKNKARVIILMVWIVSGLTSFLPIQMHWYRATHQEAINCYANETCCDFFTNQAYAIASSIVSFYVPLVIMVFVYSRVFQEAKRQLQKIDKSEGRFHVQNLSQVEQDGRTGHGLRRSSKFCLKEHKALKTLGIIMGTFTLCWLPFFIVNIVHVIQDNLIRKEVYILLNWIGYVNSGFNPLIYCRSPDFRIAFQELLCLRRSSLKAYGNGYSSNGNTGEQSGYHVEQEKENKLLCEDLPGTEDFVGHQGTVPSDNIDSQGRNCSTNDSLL
LANA-H2B inh = blocks KSHV LANA binding to histone H2A/H2B; cell-free LANA-H2A/H2B peptide, fluorescence polarization; inhibition, % (no concentration beside the values); 320,000 compounds, 0.6% hits; AID 2629; Q9QR71; in the data active means inhibition mostly above about 10%, no sharp cut-off; inactive means mostly below about 6.7%;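 further: stock transfer was 7.5 nL into about 10 µL; 0% = median of vehicle wells and 100% = median of positive control wells; one replicate is shown; the record names a cut of 25% in any replicate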
* hit, by the source's call; ? = inconclusive; nt = no result given.

Fields: Bfl-1 A1 inh | E coli growth | HNF4A DNA FP | UCH37 inh | Vif A3G | B2AR ag | LANA-H2B inh
> COc1ccccc1N1CCSC1C(N)=O (stereo not drawn)
 : 0.4 | 0.773 | 3.1 | 1.0 | ? | 0.3 | -1.6
> COc1ccc(-n2c(SCC(=O)Nc3ccccc3)nnc2-c2ccc(NS(=O)(=O)c3ccc(C)cc3)cc2)cc1
 : -0.5 | 0.788 | -6.9 | 3.8 | -4.2% | 9.8 | 0.2
> O=S(=O)(c1cccc(C(F)(F)F)c1)N1CCN(c2nnnn2-c2ccccc2)CC1
 : -0.1 | 0.695 | 2.7 | 0.9 | -0.7% | 16.2 | 2.3
> O=C(Cc1c[nH]c2ccccc12)OCCOC(=O)Cc1c[nH]c2ccccc12
 : 0.3 | 0.69 | 1.7 | 2.1 | -2.7% | -3.3 | 1.2
> Nc1cc(SCc2ccc([N+](=O)[O-])cc2)ncn1
 : nt | 0.681 | 2.9 | 2.0 | -5.5% | 3.1 | nt
> Clc1ccc(-c2nnc3n2CCCCC3)cc1
 : 1.4 | 0.705 | 0.2 | -0.5 | 1.1% | -0.4 | -3.3
> COc1ccc(C2(C(F)(F)F)NC(=O)N(C)C(=O)N2C)cc1 (stereo not drawn)
 : -0.3 | 0.699 | 0.5 | -1.0 | 7.9% | 1.8 | 1.9
> CC(C)CCNC(=O)C(c1cccnc1)N(CCc1ccccc1)C(=O)Cn1nnc2ccccc21 (stereo not drawn)
 : 0.1 | 0.718 | -1.7 | 4.7 | -1.1% | 0.9 | -0.8
> CCOc1ccc(OCC)c(NC(=O)CN2CCN(CC)CC2)c1
 : -0.5 | 0.774 | -0.7 | 2.5 | 0.3% | 5.0 | 3.4
> CCOc1ccc(C(=O)COC(=O)Cc2n[nH]c(=O)c3ccccc23)cc1
 : 0.0 | 0.617 | 3.1 | -1.3 | -19.5% | -1.1 | 0.5
> COCc1cc(=O)n2[nH]c(-c3ccccc3)cc2n1
 : 0.2 | 0.681 | -1.7 | -16.7 | -2.8% | 2.7 | -2.6
> COc1cc2c(C(=O)Nc3ccc4c(c3)OCO4)cn(CC(C)C)c(=O)c2cc1OC
 : -0.1 | 0.658 | nt | 1.6 | 26.8% | nt | 2.7
> CC(C)=C1SC(N2CCOCC2)=NC1=O
 : -0.1 | 0.713 | 1.8 | 2.6 | -2.1% | 7.3 | -7.3
> COc1ccccc1NC(=O)CCNS(=O)(=O)c1ccc2[nH]c(=O)oc2c1
 : -0.1 | 0.666 | 0.9 | 3.7 | nt | -11.9 | -1.8
> Cc1nc(-c2ccc(S(=O)(=O)NCC3CCN(C(=O)OC(C)(C)C)CC3)s2)cs1
 : 0.0 | 0.641 | 2.7 | 0.5 | -1.8% | -2.6 | -0.9
> CCOC(=O)c1cnn(-c2cc(Oc3cccc(C)c3)ncn2)c1N
 : 0.4 | 0.705 | 0.4 | 5.8 | -1.8% | 2.7 | 3.5
> O=C(NCCN1CCN(c2cccc(Cl)c2)CC1)c1ccc(CSc2nc3ccncc3[nH]2)cc1
 : -0.9 | 0.667 | 1.2 | 3.7 | nt | -7.6 | -4.6
> CCCCc1nnc(NC(=O)CCSc2ccccc2)s1
 : -0.8 | 0.688 | 0.9 | 3.2 | 0.7% | -3.4 | -6.2
> Cn1cccc1C(=O)NC(=O)CSc1nc2ccccc2s1
 : -0.1 | 0.722 | -2.1 | 5.1 | -2.9% | -2.0 | 3.0
> O=C1CC(c2ccc3c(c2)OCO3)CN1 (stereo not drawn)
 : 0.1 | 0.678 | 1.9 | 27.1* | 3.6% | -10.9 | 5.3
> O=C(CCc1ccccc1)Nc1nncs1
 : 0.0 | 0.646 | -3.0 | 7.6 | -2.1% | 1.5 | 1.1
> Cc1ccccc1NC(=O)COC(=O)c1n[nH]c(=O)c2ccccc12
 : nt | 0.679 | -1.8 | 2.4 | 1.2% | -0.9 | nt
> CCC(C)NC(=O)Cc1cn(C)c2ccccc12 (stereo not drawn)
 : -0.4 | 0.659 | 1.0 | 1.7 | 87.5µM* | 1.6 | -0.9
> CCOc1ccc(-c2nc(N)ncc2-c2ccccc2OC)c(O)c1
 : 0.0 | 0.634 | 3.1 | 2.0 | 6.5% | -11.7 | -4.1
> CC1CCN(C(=O)CN(CCc2ccccc2)S(C)(=O)=O)CC1
 : 0.7 | 0.719 | -1.5 | 1.9 | 2.2% | 6.9 | 1.6
> COc1ccc(N2CCN(C(=O)COC(=O)CCc3ccccc3OC)CC2)cc1
 : 0.7 | 0.616 | 1.9 | 0.9 | -4.4% | -2.1 | 2.0
> O=C(NCc1ccc(Cl)cc1)c1ccccc1Oc1ccccc1
 : 0.1 | 0.739 | 0.8 | 3.8 | >100µM* | -9.7 | -1.8
> COc1ccccc1NC(=O)c1nnn(CC(=O)Nc2cccc(SC)c2)c1N
 : 0.4 | 0.77 | -2.9 | -13.0 | ? | -1.3 | -0.9
> NC(=O)CC[C@@H]1NC(=O)[C@H](CO)NC(=O)c2cc([N+](=O)[O-])cc(I)c2NCC[C@@H](C(N)=O)NC(=O)[C@H](Cc2ccc(O)cc2)NC1=O
 : 2.0 | nt | nt | 3.6 | nt | nt | 2.2
> CC(=O)c1ccc(NC(=O)CSc2nnc(-c3ccncc3)o2)cc1
 : -0.6 | 0.696 | -3.5 | 4.8 | -4.1% | 2.0 | 0.0
> COc1ccc(C(c2sc3nc(C)nn3c2O)N2CC(C)OC(C)C2)cc1OC (stereo not drawn)
 : 0.0 | 0.739 | 1.2 | 5.5 | -0.5% | -6.7 | 2.7
> COc1ccc(NC(=O)CCCn2c(=S)[nH]c3ccccc3c2=O)cc1
 : 1.0 | 0.719 | -4.2 | 5.6 | 4.0% | -9.3 | -2.4
> Cc1ccc2nc(-c3ccc(O)cc3)c(Nc3ccc4c(c3)OCCO4)n2c1
 : -0.1 | 0.712 | 4.7 | -153.5 | -2.4% | -2.4 | 2.6
> Cc1ccccc1N(CC(=O)NCc1ccco1)C(=O)CNS(=O)(=O)c1ccc(F)cc1
 : -0.4 | 0.693 | 0.5 | 4.6 | nt | -0.9 | -7.2
> Cc1ccc([N+](=O)[O-])cc1Nc1nc(N2CCOCC2)nc(N2CCOCC2)n1
 : 1.4 | 0.686 | -2.0 | 0.5 | -0.8% | 49.9* | 0.4
> Cc1nn(Cc2ccccc2)c(C)c1NC(=O)CSc1nc(-c2ccccc2)nc2c1cnn2-c1ccccc1
 : nt | 0.691 | -0.8 | -28.2 | 28.1% | 7.0 | nt
> C=CCOc1ccc(/C=C/C(=O)OCC(=O)NC2CCCCCCC2)cc1
 : 2.8 | 0.656 | 1.3 | -12.1 | nt | -0.7 | -2.0
> COc1cccc(-n2c(SC)nnc2-c2cnccn2)c1
 : -0.1 | 0.677 | -0.3 | -0.4 | -0.2% | -3.7 | -2.5
> CCOCCCNC(=O)CN1C(=O)/C(=C/c2ccccc2)Sc2ccccc21
 : 0.5 | 0.726 | 0.8 | 3.8 | -1.5% | -30.9 | 3.3
> CC(C)NC(=O)c1ccccc1-c1nc(-c2ccccc2Cl)no1
 : 1.7 | 0.749 | -0.6 | 2.7 | 0.2% | 6.5 | 5.7
> CCOC(=O)c1cccc(NC(=O)C2CCC(CNc3c(N4CCOCC4)c(=O)c3=O)CC2)c1 (stereo not drawn)
 : 0.3 | 0.698 | 1.3 | 0.1 | -5.6% | 2.8 | -4.9
> C=CCSc1n[nH]c(-c2ccccc2)n1
 : -0.8 | 0.77 | -1.6 | 3.4 | 16.5% | 1.8 | 5.8
> COc1ccc(CN2CCN(C(=O)c3cccc4ccccc34)CC2)cc1Br
 : -0.3 | 0.685 | -0.3 | 5.7 | -2.0% | 5.2 | -5.6
> O=C(C1CN(C(=O)c2cc3cc(Cl)ccc3o2)c2ccccc2O1)N1CCCCC1 (stereo not drawn)
 : 0.2 | 0.674 | -1.4 | 6.6 | -12.0% | 4.7 | 0.5
> Cc1cc(Br)c2[nH]c3c(c2c1)CCCC3=O
 : 0.3 | 0.765 | 0.7 | 1.7 | 29.2% | 4.4 | 0.1
> O=C1CSC(c2ccc([N+](=O)[O-])cc2)N1CCN1CCCCC1 (stereo not drawn)
 : -0.4 | 0.698 | 3.2 | 1.9 | nt | -0.9 | -3.7
> Cc1cccc(OCc2nnc(SCC(=O)N3c4ccccc4CC3C)n2C)c1C (stereo not drawn)
 : -0.3 | 0.674 | 1.2 | 3.4 | 16.8% | -7.9 | 1.0
> Cc1cc(C)c(S(=O)(=O)N2CCOCC2)cc1NS(=O)(=O)c1cc(OCC(N)=O)c(C)cc1Cl
 : -0.2 | 0.673 | 2.0 | -0.4 | -3.0% | -3.4 | 0.4
> CCOC(=O)C1C2C=CC3(CN(CCc4ccccc4)C(=O)C13)O2 (stereo not drawn)
 : -0.6 | 0.746 | 0.9 | 4.9 | 16.5% | -0.6 | 1.0
> CC1CCN(Cc2nc(-c3ccccc3)no2)CC1
 : -2.2 | 0.632 | 3.6 | 1.0 | 11.6% | -3.8 | 3.5

Carrying on.
Fields: Bfl-1 A1 inh | E coli growth | HNF4A DNA FP | UCH37 inh | Vif A3G | B2AR ag | LANA-H2B inh
> O=C(CSc1ncn[nH]1)c1ccc(OC(F)F)cc1
 : -0.4 | 0.701 | -1.6 | 3.5 | -1.3% | 4.4 | 2.4
> CCCC[n+]1ccn(C2=C([O-])c3ccccc3C(=O)/C2=N\S(=O)(=O)c2ccc(Cl)cc2)c1
 : 0.8 | nt | 1.6 | nt | -4.6% | -10.2 | -3.9
> COC(=O)CNC(=O)CN1C(=O)N(c2ccc(Cl)cc2)C(N(O)C(=O)Nc2ccc(Cl)cc2)C1(C)C (stereo not drawn)
 : -0.2 | 0.722 | 1.4 | 3.5 | -1.8% | -1.1 | -1.6
> CCc1ccccc1NC(=O)N[C@H](C(=O)O)C(C)C
 : -0.1 | nt | 1.3 | 1.5 | 3.7% | 3.8 | -2.3
> COc1cccc(C(=O)N/N=C(\CC(C)C)c2ccccc2)c1
 : 0.5 | nt | 2.0 | nt | nt | -9.5 | nt
> O=C(Nc1nncs1)c1ccc(N2C(=O)C3C4C=CC(C4)C3C2=O)cc1 (stereo not drawn)
 : -0.7 | 0.688 | -2.3 | 3.9 | 0.7% | 4.0 | -1.5
> CCCCn1c(N)c(N(CC)C(=O)c2cc(S(=O)(=O)N3CCN(CC)CC3)ccc2Cl)c(=O)[nH]c1=O
 : 0.4 | 0.728 | -1.4 | 2.3 | 4.0% | 0.4 | 0.7
> CC1CN(C(=O)CSc2nnc(-c3ccc(Cl)cc3)n2C)CC(C)O1 (stereo not drawn)
 : 0.7 | 0.632 | 1.2 | 6.2 | -9.5% | 2.0 | -6.4
> O=C(Nc1cccc(O)c1)c1ccc([N+](=O)[O-])cc1Cl
 : -0.8 | 0.707 | -3.4 | 6.2 | -7.5% | 5.1 | 2.8
> O=C(Cn1cc2c(n1)CCCC2)NCCCN1CCN(C2CCCCC2)CC1
 : 0.3 | 0.75 | 3.8 | 4.4 | ? | 5.0 | -2.5
> Cc1cc(C(=O)NCCCN2CCCC2=O)cs1
 : 0.1 | 0.665 | -2.4 | -0.1 | ? | 3.3 | 3.7
> Cn1c(COc2ccccc2)nc2ccccc21
 : 0.4 | 0.666 | -0.2 | 2.0 | nt | -14.6 | -1.2
> COC(=O)CC1C(=O)NCCN1C(=O)c1ccc([N+](=O)[O-])cc1 (stereo not drawn)
 : 0.3 | 0.671 | -0.5 | 6.0 | -4.7% | -3.0 | -2.9

Screening results (PubChem BioAssay)

This is a random part of the collection; any-hit rate near 2.1%.
